gsp ag = qHTS for Agonist of gsp, the Etiologic Mutation Responsible for Fibrous Dysplasia/McCune-Albright Syndrome: qHTS. hit rate 0.13% among 340,000. Potency, µM (highest dose often 76.9 µM), for the others: at the top dose activation (cAMP increase), usual class: activators. AID 624287, 2012. gsp mutant cells, cAMP HTRF, 30 min; control for the full effect not named in the record; active = well fitted activation curve with a large enough effect; inconclusive = small, poorly fitted or top-dose-only effect, or another doubt; inactive = no such curve, though single readings can be large or run the other way; cell line not stated here;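 note: phosphodiesterase inhibitor Ro 20-1724 added with compounds to block cAMP breakdown; potency is the fitted concentration of half-maximal effect; nearly all actives have a fitted effect of over 60% in size; about a fifth of the inactives were tested at one dose only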
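Cells stably selected in G418 were plated at 2000/well, grown 16-24 hr, then given compounds in DMSO with the PDE inhibitor […] (300 uM solution added) for 30 min at 37C; cAMP was read by HTRF.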
CtBP-E1A inh = qHTS Assay for Inhibitors of the CtBP/E1A Interaction. CtBP / adenovirus E1A interaction (AlphaScreen). AlphaScreen GST-E1A/His-CtBP binding, 1536-well; stronger effect = lower value; control for the full effect not named in the record. activity change, % (concentration not given with the values). hit rate 0.49% among 340,000; in the data active means activity change below about -65%; inconclusive means about -30% to -65%; inactive means above about -30%; note: % is set by controls: 0 for no effect and ±100 for the full control effect
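AlphaScreen with 125 nM GST-E1A and 125 nM His-CtBP (5X stocks) in Tris pH 8.0, 300 mM NaCl, BSA, Tween 20, TCEP. Compounds preincubated 2 h at 37 deg C, then glutathione donor/nickel acceptor beads added for 1 h at 37 deg C in dark.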
D2 ag = Beta-Arrestin HTS for Positive Allosteric Modulators of the Human D2 Dopamine Receptor: Agonists. DiscoveRx PathHunter D2 beta-arrestin, luminescence, 90 min; 100% = 57 uM dopamine signal. activation, % (test concentration not listed). hit rate 0.084% among 360,000. AID 624465, 2012; in the data active = activation above about 40%; inconclusive = about 15% to 40%; inactive = below about 15%; note: compound concentration not given in the record; the text of the record calls up to 30% inactive
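Agonist mode: compounds alone added to overnight-plated D2 PathHunter cells for 90 min at 37 C, with 57 uM final dopamine (EC100) defining full response. Beta-arrestin recruitment detected by chemiluminescent reagent, read after 1 h at ambient temperature.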
D2 PAM = Beta-Arrestin HTS for Positive Allosteric Modulators of the Human D2 Dopamine Receptor: Potentiators; DiscoveRx D2 beta-arrestin cells, luminescence, 90 min; 100% = 57 uM dopamine signal; potentiation, % (concentration not given with the values); hit rate 0.23% among 360,000; AID 624464, 2012; active = potentiation of 50% or more; inconclusive = 30% to 50%; inactive = 30% or less;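 note: compound concentration not given in the record; tested on top of an EC20 dose of dopamine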
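PathHunter beta-arrestin assay in DiscoveRx D2 cells. Compounds were added with an EC20 of dopamine (50 nM final) for 90 min at 37 deg C. Luminescence was read 1 h after detection reagent, with 57 uM dopamine as the EC100 control.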
gsp antagonist = qHTS for Antagonists of gsp, the Etiologic Mutation Responsible for Fibrous Dysplasia/McCune-Albright Syndrome: qHTS. gsp-mutant cells, cAMP HTRF, 30 min; control for the full effect not named in the record. Potency, µM (highest dose often 76.9 µM), for the others: top-dose activity change, negative = inhibition, hits mostly inhibitors. hit rate 0.4% among 340,000. AID 624288, 2012; active = falling curve of any shape with a large fitted effect; inconclusive = falling curve, mostly with a smaller effect; inactive = flat or rising curve; cell line not stated here;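 note: intracellular cAMP measured with PDE inhibitor Ro 20-1724 present during compound exposure; potency is the fitted concentration of half-maximal effect; % is set by controls: 0 for no effect and ±100 for the full control effect; nearly all actives have a fitted effect of over 65% in size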
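HTRF cAMP read-out (cAMP-d2 plus anti-cAMP antibody-K in lysis buffer, 30 min RT). Before lysis, cells are exposed to compounds with […] for 30 min at 37C in DPBS containing Ca/Mg, BSA and Tween 20.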
Six1-Eya2 inh = qHTS Assay for Inhibitors of the Six1/Eya2 Interaction | AlphaScreen GST-Six1/His-Eya2 binding, biochemical; stronger effect = lower value; control for the full effect not named in the record | hit rate 0.56% among 360,000 | Homeobox protein SIX1 (Homo sapiens) + Protein phosphatase EYA2 (Homo sapiens), … | activity change, % (no concentration beside the values); in the data active = activity change below about -65%; inconclusive = about -30% to -65%; inactive = above about -30%; note: % is set by controls: 0 for no effect and ±100 for the full control effect; compound concentration not given in the record
Target sequence (O00167 whole entry, looked up): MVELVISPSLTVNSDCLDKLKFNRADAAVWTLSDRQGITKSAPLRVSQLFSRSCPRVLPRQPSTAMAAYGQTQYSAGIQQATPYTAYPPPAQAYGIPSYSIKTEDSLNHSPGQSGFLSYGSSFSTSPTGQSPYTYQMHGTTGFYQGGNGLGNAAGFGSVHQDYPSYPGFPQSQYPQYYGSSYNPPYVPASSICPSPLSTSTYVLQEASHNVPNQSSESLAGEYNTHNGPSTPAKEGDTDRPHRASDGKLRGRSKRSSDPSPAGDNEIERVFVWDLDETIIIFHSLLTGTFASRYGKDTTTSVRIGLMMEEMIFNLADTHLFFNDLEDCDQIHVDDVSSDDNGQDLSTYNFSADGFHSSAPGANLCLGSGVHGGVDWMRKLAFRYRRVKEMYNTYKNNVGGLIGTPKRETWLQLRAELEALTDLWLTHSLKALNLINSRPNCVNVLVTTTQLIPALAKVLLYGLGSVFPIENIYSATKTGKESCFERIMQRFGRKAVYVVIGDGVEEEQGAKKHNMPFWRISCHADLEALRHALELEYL
Target sequence (Q15475 whole entry, looked up): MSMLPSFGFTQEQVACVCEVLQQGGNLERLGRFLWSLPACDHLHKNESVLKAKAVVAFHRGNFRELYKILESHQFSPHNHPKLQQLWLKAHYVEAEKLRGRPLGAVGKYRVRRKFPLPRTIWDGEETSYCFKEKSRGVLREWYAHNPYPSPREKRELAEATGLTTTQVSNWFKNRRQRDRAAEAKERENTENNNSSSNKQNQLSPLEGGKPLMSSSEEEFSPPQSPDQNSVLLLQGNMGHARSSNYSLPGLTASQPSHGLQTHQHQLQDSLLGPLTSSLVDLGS
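Six1/Eya2 binding was read as AlphaScreen signal after compounds were pinned into GST-Six1 plus His-tagged Eya2 (5X stock 250/500 nM) in pH 8.0 Tris/NaCl/TCEP buffer, beads added, then incubated 1 h, 37 C, dark.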
Numbers without * were called inactive; ? = inconclusive; . = not tested or not shown; [ ] = remark or other dose.

SMILES	gsp ag	CtBP-E1A inh	D2 ag	D2 PAM	gsp antagonist	Six1-Eya2 inh
O=C(NCc1ccccc1)c1c[nH]c2ccccc2c1=O	-8%	.	-3.9	-9	-6%	7
Cc1ccc2c(c1)N(CC(=O)Nc1nccs1)C(=O)CO2	-1%[15.4 µM]	3	-2.7	7	10%	-10
Cc1cc(C(=O)Nc2ccccc2[N+](=O)[O-])cs1	-2%	-24	9.5	-5	16%	-29
O=C(CCC1CCCN(C(=O)c2cc(F)ccc2F)C1)N1CCN(c2ccccn2)CC1 (configuration not stated)	-37%[inhibitor]	4	-2.3	-2	.	0
O=C1CCCN1CC(=O)N1CCCC(Nc2cccc(F)c2)C1 (configuration not stated)	17%	-5	-2.8	-1	12%	2
O=C(Nc1nccs1)c1cccc(S(=O)(=O)N2CCOCC2)c1	-8%	-4	1.9	-5	7%	-10
c1ccc(COc2cccc(CN3CCc4ccccc4C3)c2)cc1	-18%	11	1.6	-24	-1%	4
CCCCNC(=O)c1ccc(/C=C2\Oc3ccccc3N(C)C2=O)cc1	?	-2	-2.3	-1	6%	8
COc1ccc(Cc2nc3ccc(C(=O)N4CCCCC4CO)cc3o2)cc1OC (configuration not stated)	5%	5	-0.6	-6	.	1
COc1ccc(Cl)cc1-c1n[nH]c(=S)n1C	13%	4	-6.0	-16	0%	-13
COC(=O)c1ccc(S(=O)(=O)N2CCCC2)o1	14%	-1	-4.8	-17	3%	-3
COC(=O)C(NC(=O)c1ccco1)(Nc1nc(C)cs1)C(F)(F)F (configuration not stated)	1%	1	-1.5	3	0%	1
CN(Cc1ccccc1)Cc1nc2c(c(=O)n(C)c(=O)n2C)n1CCc1ccccc1	-8%	-4	-2.6	0	2%	-4
CC1(C)Cc2nc(-c3ccccc3)nc(SCC(=O)N3CCOCC3)c2CO1	30%	1	1.5	-5	29%	0
COCc1cc(C)nc(Sc2nc3c(c(=O)n(C)c(=O)n3C)n2C)c1C#N	25%	-7	7.0	-1	-9%	-1
O=S(=O)(c1ccccc1)N1CCN(c2ncnc3sc(-c4ccccc4)cc23)CC1	-3%	-8	-2.4	-11	0%	-10
COc1ccccc1CNCC(=O)Nc1cc(S(=O)(=O)N2CCOCC2)ccc1Cl	-12%	3	7.0	-4	-24%	0
CCOc1ccc(N(CC(=O)NCCC2=CCCCC2)S(=O)(=O)c2ccccc2)cc1	-19%[15.4 µM]	6	-5.0	-8	-27%	11
O=[N+]([O-])c1cc2ccccc2c(O)c1O	-33%[inhibitor]	17	2.2	-11	.	-10
COc1ccc(S(=O)(=O)N2CCC(C(=O)Nc3cccc(C(C)=O)c3)CC2)cc1C	-8%	-8	-2.1	-8	-7%	0
COc1ccc(C(F)(F)F)cc1N/C=C/c1nnnn1-c1ccc(C)cc1	9%	0	1.5	-3	-12%	3
COc1ccc(-c2csc(N(Cc3ccccc3)C(=O)COc3ccc(Cl)cc3)n2)cc1	3%	2	1.8	1	1%	2
Cc1ccc(C)c(CN2CCSCC2)c1	7%[15.4 µM]	2	0.2	-4	3%	-6
O=C1Nc2cc(C(=O)NCCCN3CCCC3)ccc2S/C1=C/c1cccc(Cl)c1	0%	-8	-0.7	-34	.	0
COC(=O)CNC(c1ccccc1)c1cc(Br)ccc1NC(=O)CCN1CCOCC1 (configuration not stated)	-6%	.	-3.6	-13	-2%	13
N#CC1(NC(=O)COC(=O)c2ncc(Cl)c(Cl)c2Cl)CCCCC1	-20%	-2	-0.2	26	-5%	4
CCOP(=O)(OCC)C(NC(=O)/C=C/c1ccc(OC)cc1)c1ccccc1 (configuration not stated)	-1%	-6	2.4	-9	-3%	-2
Cc1nc2ccccc2nc1OCC(=O)Nc1cc(C(F)(F)F)ccc1N1CCOCC1	10%	-2	-1.4	5	-4%	9
COc1ccc(C(=O)c2ccc(Cl)cc2)c(OC)c1OC	5%[15.4 µM]	7	0.0	-23	9%	2
S=c1[nH]nc(COc2ccccc2)n1/N=C/c1ccco1	21%	2	-3.7	-12	-25%	3
C/C(CC(=O)Nc1ccccc1C#N)=N\NC(=O)c1ccncc1	-14%[15.4 µM]	-5	-4.1	6	2%	-2
CCN1C(=O)/C(=C/C2=Cc3ccccc3OC2C)SC1=S (configuration not stated)	-1%[15.4 µM]	-4	0.0	-7	-1%	-3
CCCCn1nnnc1SCC(=O)NNC(=O)c1ccco1	-6%[15.4 µM]	-3	-1.3	4	6%	17
CC1Sc2ccc(S(=O)(=O)NCc3ccccc3)cc2NC1=O (configuration not stated)	-5%	-5	-0.3	-5	13%	6
CCOC(=O)CSc1nnc(CCCCCN2C(=O)c3cccc4cccc(c34)C2=O)o1	-16%	.	-6.0	-14	?	-2
CCOC(=O)N1CCN(C(=O)c2sc3nc(-c4ccc(F)cc4)cn3c2C)CC1	-25%	-3	-0.7	-31	-18%	-6

Complete entries, quoted from the list.
`CCN1C(=O)/C(=C/C2=Cc3ccccc3OC2C)SC1=S` (configuration not stated) is listed as gsp ag: -1%[15.4 µM]; CtBP-E1A inh: -4; D2 ag: 0.0; D2 PAM: -7; gsp antagonist: -1%; Six1-Eya2 inh: -3
`CCOC(=O)CSc1nnc(CCCCCN2C(=O)c3cccc4cccc(c34)C2=O)o1` is listed as gsp ag: -16%; CtBP-E1A inh: .; D2 ag: -6.0; D2 PAM: -14; gsp antagonist: ?; Six1-Eya2 inh: -2

(listing goes on)
SMILES	gsp ag	CtBP-E1A inh	D2 ag	D2 PAM	gsp antagonist	Six1-Eya2 inh
COc1ccc(NC(=S)NCc2cccn2C)cc1	14%[15.4 µM]	-2	-3.4	-3	11%	-4
CCOc1ccccc1C(=O)NCC(=O)OCC(=O)NCCc1ccc(S(N)(=O)=O)cc1	6%	-5	-2.5	7	1%	4
COC(=O)c1ccc(C(c2c(N)n(CC(C)C)c(=O)[nH]c2=O)N2CCN(c3ccccc3)CC2)cc1 (configuration not stated)	-2%	1	0.8	-3	11%	-6
CC1(C)CC2CC(C)(CN2C(=O)c2cccs2)C1 (configuration not stated)	2%	-2	-2.4	11	-11%	-1
CC(C)OC(=O)C1C(=O)CC(C)(O)C(C(=O)OC(C)C)C1c1cccnc1 (configuration not stated)	-16%	7	0.1	-3	4%	10
CC(=O)N(CCc1ccccc1C)Cc1cc2cc3c(cc2[nH]c1=O)OCO3	?	-2	-1.6	2	10%	1
Cc1cc(=O)oc2ccc(OC(=O)CC(C)C)cc12	-14%[15.4 µM]	8	-4.0	-3	3%	-1
O=S(=O)(Cc1ccc(Cl)cc1)NCc1ccc2c(c1)OCO2	46%	-1	-7.1	-6	11%	0
Cc1cc(C)c(S(=O)(=O)N2CCCCCC2)cc1Br	2%[15.4 µM]	-7	-0.1	-5	-25%	30
O=C(CCl)Nc1cccc(Oc2ccccc2)c1	-9%[15.4 µM]	5	2.8	-1	-3%	2
CCOCC(=O)Nc1cc([N+](=O)[O-])ccc1OC	8%	3	1.8	-2	-1%	10
CCN1CCN(c2cc(C)c3cc(NC(=O)c4ccc5c(c4)OCO5)ccc3n2)CC1	30%	-4	3.2	-4	1%	-25
Cc1ccc(S(=O)(=O)N(C)C[C@@H]2OCCCC[C@@H](C)Oc3ccc(NS(=O)(=O)c4c(C)noc4C)cc3C(=O)N([C@H](C)CO)C[C@@H]2C)cc1	-83%[inhibitor]	-8	-11	-2	.	-2
O=C(c1ccccc1O)N1N=C(C(F)(F)F)CC1(O)c1ccc([N+](=O)[O-])cc1 (configuration not stated)	-11%	.	-7.2	-13	?	-3
CC1C(=O)N(Cc2cn(Cc3ccco3)nn2)CCS(=O)(=O)N1Cc1ccc(-c2cccnc2)cc1 (configuration not stated)	.	0	-4.2	-6	.	-19
COc1ccc(OC)c2c1sc(=NC(=O)C1COc3ccccc3O1)n2C (configuration not stated)	1%[15.4 µM]	7	0.2	3	4%	3
O=C(Nc1cc(Cl)ccc1N1CCOCC1)c1cccnc1	-13%[15.4 µM]	6	-3.9	-12	-4%	-2
O=C(CSc1nc2c(cnn2-c2ccc(F)cc2)c(=O)[nH]1)N1CCOCC1	-64%[inhibitor]	-16	-0.6	9	-18%	0
COc1ccc(NC2=C(C(C)=O)C(c3ccccc3)C(C(C)=O)C(C)(O)C2)cc1 (configuration not stated)	3%[15.4 µM]	-5	-4.3	-12	-10%	1
CC(=O)c1sc(NC(C)c2ccccc2)nc1C (configuration not stated)	0%[15.4 µM]	0	-1.0	8	8%	-6
O=C(CSc1nc2ccsc2c(=O)n1Cc1ccccc1)NCc1ccco1	-2%	3	-0.1	-3	-15%	-1
O=S(=O)(c1cc(Cl)ccc1Cl)N1CCN2CCCC2C1 (configuration not stated)	-11%	9	0.5	-11	11%	9
Cc1cccc(NC(=O)CN2C(=O)S/C(=C\C(=O)Nc3ccc(Cl)cc3)C2=O)c1	-3%	-3	4.4	1	9%	-4
Fc1ccc(-c2nnc(NC3=NCCCCC3)o2)cc1	22%	0	-2.6	-5	-7%	25
Cc1cc2c(cc1S(=O)(=O)N1CCCCC1)OCC(=O)N2	1%	1	-2.9	1	4%	3
Cc1cccc(N2CCN(C(=O)NC(C)c3ccc(F)c(F)c3)CC2)c1C (configuration not stated)	1%[15.4 µM]	8	-1.1	-6	-6%	-8
CCN(C(=O)CSc1nnc(-c2ccc(OC)cc2)n1N)c1c(N)n(Cc2ccccc2)c(=O)[nH]c1=O	-13%	-2	2.4	-5	10%	5
Cc1ccc([C@H]2N[C@]3(CCCN(Cc4cccn4C)C3=O)[C@H]3C(=O)N(Cc4ccccc4)C(=O)[C@@H]23)cc1	-19%	-3	-1.3	.	.	-10
CCOC(=O)N/N=C(C)/C=C/c1ccccc1	-14%	8	5.0	-4	9%	1
Cc1cc(C(=O)NNC2CC(=O)N(c3ccc4ccccc4c3)C2=O)c(C)o1 (configuration not stated)	9%[15.4 µM]	-11	3.0	-18	3%	-11
COc1ccc(C(=O)NCCc2ccccn2)cc1S(=O)(=O)Nc1ccc(Br)cc1	6%	0	-3.7	5	3%	2
Cc1nc(NC(=O)CSc2nnc(-c3ccncc3)n2C)sc1C	18%	-21	-3.9	-4	1%	-3
COc1ccc2cc(C(=O)N3CCN(c4ccccc4F)CC3)[nH]c2c1	?	2	2.0	-8	-1%	22
O=C(NC1CCCN(Cc2ccc(Cl)cc2)C1)c1ccccc1-c1ncc[nH]1 (configuration not stated)	-14%	-2	-1.2	-12	3%	-1
Cc1cc(=O)[nH]c(SCC(=O)Nc2ccc3c(c2)OCCO3)n1	?	-1	-2.8	-7	1%	0
COC(=O)c1ccccc1NC(=O)c1cc(C)no1	0%	1	-2.1	-10	2%	-1

Bioassay records from PubChem.
